# High-throughput results (PubChem BioAssay)
# eIF4H inh: inhibitors of RNA binding by human eIF4H; inhibition, % at 35 µM; hit rate 0.94% among 290,000; eIF4H fluorescence polarization binding assay; Q15056; AID 2012;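 active = 50% or more with normal probe brightness, or confirmed in later tests; about a fifth of its hits are not listed in these tables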;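 note: calls also rest on retests at 20 µM and on dose response follow-up; 0% = protein and probe with vehicle and 100% = probe without protein; strong numbers were not always called active; many hits fall short of the cut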
# Rce1 inhib: blocks yeast Ras-converting enzyme. Q03530. yeast membranes, quenched prenylated peptide cleavage fluorescence. calls only. hit rate 0.27% among 290,000;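 active = fall in fluorescence gain of 50% or more versus controls, with final raw signal at or below 3038400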;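 note: plate controls were neutral control wells for no effect and wells lacking membranes for full effect; tested at 10 µM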
# Target sequence (Q03530 whole entry, looked up): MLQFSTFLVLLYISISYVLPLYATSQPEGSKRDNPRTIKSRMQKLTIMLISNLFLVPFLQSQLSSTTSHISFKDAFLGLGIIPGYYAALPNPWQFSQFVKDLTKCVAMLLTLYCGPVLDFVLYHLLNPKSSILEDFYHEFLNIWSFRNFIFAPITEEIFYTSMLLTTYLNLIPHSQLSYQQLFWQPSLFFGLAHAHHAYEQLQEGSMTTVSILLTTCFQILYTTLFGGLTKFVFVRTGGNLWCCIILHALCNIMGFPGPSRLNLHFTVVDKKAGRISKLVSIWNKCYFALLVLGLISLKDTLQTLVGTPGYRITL
# MT1-MMP act inh: inhibitors of human MT1-MMP activation; P50281; HT1080 RFP-PRO-GFP cells, GFP/RFP ratio fluorescence, overnight; percent of plate control window, DMSO zero; GFP/RFP ratio change, % at 20 µM; hit rate 0.061% among 360,000; AID 651647;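 active = GFP/RFP ratio change of at least 30% with cell ATP level not reduced by more than half and red fluorescence within 50% of control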; note: strong numbers were not always called active
#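 Assay system: HT1080 RFP-PRO-GFP cells | Dosing: 20 µM single dose, 1% DMSO | Incubation: Cells overnight before dosing, compound overnight, 37 °C, 5% CO2 | Evaluation: GFP/RFP fluorescence ratio | Control set: DMSO-only wells and HT1080 RFP-L50D-GFP cell wells as references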
# Yeast UUG start: yeast start codon fidelity modulation; S. cerevisiae UUG-firefly luciferase reporter, luminescence/redox ratio; activity score, % at 18.7 µM; hit rate 0.13% among 350,000;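 active = replicate mean at a twofold rise or more, about +100% in these data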;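 note: firefly luciferase made from a UUG start codon reports start codon fidelity; reporter light over untreated wells divided by growth signal over untreated wells; some hits fall short of that in this replicate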
# HIV Env fusion: blocks HIV Env-driven cell-cell fusion; hit rate 1.1% among 360,000; HeLa-JRFL Env/CEM21 cell fusion, luciferase; inhibition, % at 12.3 µM;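 active = mean replicate inhibition score of at least 50 and every replicate individually at or above 50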;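 note: 0% = plate neutral controls and 100% = maraviroc near 300 nM; one replicate is shown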
# CSC inhib: cancer stem cell inhibition; hit rate 1.1% among 300,000; cancer stem cell-like cells viability, luminescence; inhibition, % at 7.5 µM;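 active = mean at 75% or more and at least half the replicates too; tested in HMLE shEcad cells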;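 note: 0% = median of negative and 100% = median of positive control wells; the first replicate is given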
# PABP FP inh: PABP-poly(A) binding inhibition; P11940; PABP-poly(A) RNA binding, fluorescence polarization; inhibition, % at 35 µM; hit rate 1% among 290,000; AID 2014;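 active = 50% or more with normal probe brightness, or confirmed in later tests; about a fifth of its hits are not listed in these tables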;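 note: calls also rest on retests at 20 µM and on dose response follow-up; controls were probe without protein and protein plus probe with vehicle; some compounds called inactive have numbers as strong as hits; many hits fall short of the cut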
# Target sequence (P11940 whole entry, looked up): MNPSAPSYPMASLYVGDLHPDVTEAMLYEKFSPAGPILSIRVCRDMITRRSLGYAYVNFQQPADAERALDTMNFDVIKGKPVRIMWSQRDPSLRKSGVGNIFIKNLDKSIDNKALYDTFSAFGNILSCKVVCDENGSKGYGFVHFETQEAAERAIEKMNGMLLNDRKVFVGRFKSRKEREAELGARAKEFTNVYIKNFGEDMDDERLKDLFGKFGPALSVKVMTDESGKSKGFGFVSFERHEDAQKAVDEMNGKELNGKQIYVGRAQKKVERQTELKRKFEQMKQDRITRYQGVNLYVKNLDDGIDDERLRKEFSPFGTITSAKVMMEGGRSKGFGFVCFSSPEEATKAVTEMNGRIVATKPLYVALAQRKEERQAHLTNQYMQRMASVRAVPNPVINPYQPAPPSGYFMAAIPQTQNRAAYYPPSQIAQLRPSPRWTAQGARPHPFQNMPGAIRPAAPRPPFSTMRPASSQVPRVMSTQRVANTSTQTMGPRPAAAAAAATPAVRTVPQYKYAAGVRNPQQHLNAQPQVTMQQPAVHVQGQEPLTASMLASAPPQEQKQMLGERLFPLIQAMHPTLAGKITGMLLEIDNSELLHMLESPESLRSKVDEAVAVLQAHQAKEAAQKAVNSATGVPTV
# eIF4H inh retest: further read-out of eIF4H inh, marked with its call; inhibition, %; compound at 20 µM; confirmation average;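 mean of two retest wells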
# PABP FP inh retest: further read-out of PABP FP inh, marked with its call; inhibition, %; compound at 20 µM; confirmation repeats;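 mean of two retest wells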
# MT1-MMP act inh RFP: also measured in MT1-MMP act inh; calls as there; RFP signal change, %; measured here: RFP expression control read;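 0 = vehicle wells; hits needed this value within 50% of zero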
# Active calls of the source: *; i = inactive; / = not tested or not shown.
SMILES,eIF4H inh,Rce1 inhib,MT1-MMP act inh,MT1-MMP act inh RFP,Yeast UUG start,HIV Env fusion,CSC inhib,PABP FP inh,others
Cc1nnc(-c2ccccc2)[nH]c1=O,-4,i,0,1,-20,4,7,17,
CCOc1cccc(C(=O)Nc2ccncc2)c1,-6,i,-2,-15,/,6,-1,-19,
O=C(C(=O)N1CCN(c2ccc([N+](=O)[O-])cc2)CC1)c1cn(CC(=O)N2CCOCC2)c2ccccc12,-2,i,0,-3,7,-11,-3,12,
CC(C)(C)c1ccc(-c2nc(C#N)c(NCc3cccnc3)o2)cc1,-4,i,-2,-6,-14,-124,/,-9,
CCCCN1C(=N)N([C@@H](C)CN2CCC[C@H]2CN2C(N)=NC[C@H]2CC(C)C)C[C@H]1[C@H](C)CC,/,/,1,4,-6,19,11,/,
COc1ccc(Cl)cc1C(=O)CSc1nc(N)cc(N)n1,-8,i,4,4,-13,-45,-12,-19,
CSc1ccccc1C(=O)N1CCC(CCC(=O)NCc2ccc(F)cc2)CC1,-6,i,4,-4,-7,-4,-7,9,
COc1ccc(C2(c3ccc(OC)cc3)NC(=O)N(CC(=O)NC(C)C)C2=O)cc1,-4,i,-3,0,-16,1,-29,2,
O=C1c2ccc(Oc3ccc4c(c3)C(=O)N(CCCCO)C4=O)cc2C(=O)N1CCCCO,-13,i,-3,-2,/,/,-13,-4,
O=C(c1ccc(N2CCOCC2)c([N+](=O)[O-])c1)N1CCN(S(=O)(=O)c2cccs2)CC1,15,i,3,1,/,5,-15,4,
COC(=O)c1ccc(COC(=O)c2ccc(C)c(S(=O)(=O)N3CCCCC3)c2)cc1,/,/,1,-4,-11,-15,/,/,
Nc1ccccc1SCc1ccccc1,-1,i,1,-1,14,-10,-11,-3,
CCOc1ccc(-n2cnnn2)cc1S(=O)(=O)N1CCCCC1,4,i,2,-3,-13,-25,-9,0,
O=C(O)CSCC(=O)NCc1ccccc1,1,i,7,2,-17,/,-11,0,
S=C(NCCc1ccccc1)N1CCCC1,/,/,1,1,/,-17,-27,/,
O=C(NCCc1nc2ccccc2[nH]1)/C(=C/c1ccco1)NC(=O)c1ccc(Br)cc1,-8,i,0,-3,-8,-2,-14,-14,
CCOc1cccc(CNCCNC(=O)c2nonc2N)c1,-1,i,2,5,-10,-14,-9,-2,
CC(=O)c1ccc(NC(=O)C(C)Sc2nnc(C3CC3)n2C2CC2)cc1 (stereo not given),/,/,-2,2,-23,-13,/,/,
O=[N+]([O-])c1cc(S(=O)(=O)Nc2ccccc2)ccc1N1CCN(c2ccc(O)cc2)CC1,17,i,-2,0,/,23,77*,11,
Cc1cc(OC(=O)c2ccccc2Br)c([N+](=O)[O-])c(=O)[nH]1,-13,i,4,0,-11,-13,-7,-16,
Cc1cccc(OCCn2cc(/C=N/NC(=O)c3ccncc3)c3ccccc32)c1,-14,i,5,-8,/,/,13,-1,
CCOc1ccc(C(=O)COC(=O)c2nc3nccc(C)n3n2)cc1,/,/,-1,4,-12,5,/,/,
O=C(COC(=O)c1ccc2c(c1)C(=O)N(CCc1ccccc1)C2=O)Nc1ccc(OC(F)F)cc1,3,i,1,0,/,-3,-1,12,
CCOC(=O)CN(C(=O)CSc1nnc(CNc2ccc(F)cc2)n1C)c1ccccc1,-2,i,8,2,-9,/,-6,-1,
Cc1nn(C(C)C(=O)Nc2ccc(Cl)cn2)c(C)c1[N+](=O)[O-] (stereo not given),-2,i,-4,1,-3,-8,-3,3,
C/C(=N\NC(=O)c1ccc(Cl)cc1)c1cccc(NC(=O)c2cccnc2)c1,2,i,4,4,-11,-154,20,10,
COc1ccc(C)cc1S(=O)(=O)Nc1ccccc1C,-4,i,1,-2,-9,/,-15,-4,
CNC(=O)NC(=O)COC(=O)c1ccc(-n2c(C)ccc2C)cc1,15,i,0,2,/,-13,15,27,
CC(C)C[C@@H]1CN=C(N)N1C[C@@H]1CCCN1C[C@H](C)N1C[C@@H](Cc2ccccc2)N(CCc2ccc(Cl)c(Cl)c2)C1=N,/,/,2,4,2,/,3,/,
COc1ccc(Cl)cc1NC(=O)C1CCCN(S(C)(=O)=O)C1 (stereo not given),-16,i,-3,2,-27,-2,-6,6,
CCN(CC)C(=O)c1ccc(CS(=O)(=O)Cc2ccccc2)cc1,-1,i,-1,-3,-9,2,-12,6,
COc1cc2c(cc1OC)C1=C(C#N)CN(C3CCCCC3)CN1CC2,6,i,-9,-3,-13,5,-2,10,
COc1ccc(S(=O)(=O)Nc2nc3ccccc3s2)cc1,8,i,3,7,-47,-27,-6,-2,
Cc1cccc(NC(=O)CSc2cccc3cccnc23)c1,-6,i,2,1,-13,2,-9,-5,
NC(=O)C[n+]1ccc(/C=N/O)cc1,-4,i,-3,-1,/,-1,8,-16,
C=CCNCCOCCOc1ccc(C)cc1[N+](=O)[O-],-7,i,-4,-4,-13,-84,-11,1,

# Random excerpt: four records from the list, in no set order.
SMILES,eIF4H inh,Rce1 inhib,MT1-MMP act inh,MT1-MMP act inh RFP,Yeast UUG start,HIV Env fusion,CSC inhib,PABP FP inh,others
COc1ccc(Cl)cc1NC(=O)C1CCCN(S(C)(=O)=O)C1 (stereo not given),-16,i,-3,2,-27,-2,-6,6,
C=CCNCCOCCOc1ccc(C)cc1[N+](=O)[O-],-7,i,-4,-4,-13,-84,-11,1,
CCN(CC)C(=O)c1ccc(CS(=O)(=O)Cc2ccccc2)cc1,-1,i,-1,-3,-9,2,-12,6,
Cc1cccc(NC(=O)CSc2cccc3cccnc23)c1,-6,i,2,1,-13,2,-9,-5,

# New compounds follow.
SMILES,eIF4H inh,Rce1 inhib,MT1-MMP act inh,MT1-MMP act inh RFP,Yeast UUG start,HIV Env fusion,CSC inhib,PABP FP inh,others
Nc1nc(CN2CCN(c3ccccc3F)CC2)nc(Nc2ccc3c(c2)OCCO3)n1,-11,i,0,-1,-20,9,-3,1,
COc1ccc(NC(=O)CN2CCCN(S(=O)(=O)c3ccc(F)cc3)CC2)cc1,7,i,-1,-1,1,/,-2,-7,
Cc1nnc(SCC(=O)NCc2ccccc2Cl)n(N)c1=O,2,i,7,2,/,-18,/,-10,
CC1CCN(S(=O)(=O)N2CCC(C(=O)NCc3cccnc3)CC2)CC1,-3,i,-1,-2,-16,3,-5,-2,
CCCCn1cnc2c(c1=O)c1nc3ccccc3nc1n2Cc1ccc2c(c1)OCO2,-4,i,-5,-2,-5,9,10,-11,
COc1ccc(C(=O)NCS(=O)(=O)c2ccc(C)cc2)cc1,1,i,2,11,-20,5,-4,-17,
CCCOc1ccc(N2C(=O)CC(NCCc3ccc(S(N)(=O)=O)cc3)C2=O)cc1 (stereo not given),4,i,-5,-2,-19,-23,-15,7,
O=C(COc1ccccc1Cl)Nc1ccc(S(=O)(=O)Nc2ccccn2)cc1,-4,i,1,-3,5,14,-7,-5,
CCOC(=O)Cc1c(C)[nH]c(=S)[nH]c1=O,-8,i,8,0,0,/,-18,-3,
CCNC(=S)N1CCN(Cc2ccccc2)CC1,-7,i,1,6,/,-2,5,-6,
CCC1=C(OC(=O)N(CC)CC)N2C(=O)OC(=NCC3CC3)[C@]2(Cc2ccccc2)[C@H]2C1=CC[C@H]1C(=O)NC(=O)[C@H]12,-4,i,-6,-9,20,-29,-4,5,
CN1C2CCC1/C(=C\c1ccccc1F)C(=O)/C2=C/c1ccccc1F,-3,i,10,-13,-3,-6,23,-6,
CS(=O)(=O)N1CCC(C(=O)Nc2ccc(Oc3ccccc3)cc2)CC1,-7,i,10,-4,-24,-3,17,2,
CCOc1ccc2nc(-c3cc(NC(C)=O)ccc3O)sc2c1,22,i,5,2,/,-13,-6,-2,
Cc1ccc(-c2nc3cccnc3o2)cc1NC(=O)COc1ccc(C(C)(C)C)cc1,0,i,4,-21,-26,/,-3,-2,
CCOC(=O)C1=C(C)N=c2s/c(=C3\C(=O)Nc4ccccc43)c(=O)n2C1c1ccc2c(c1)OCO2 (stereo not given),-4,i,1,7,-21,-7,-10,-14,
Cc1ccnc2nc(C(=O)OCC(=O)Nc3ccc4c(c3)OC(F)(F)O4)nn12,-12,i,5,2,/,-4,-9,-5,
CC(C(=O)N1CCCCC1)N1CCN(S(=O)(=O)c2ccc(Cl)cc2)CC1 (stereo not given),/,/,0,0,-20,-6,-15,/,
O=C(CCCOc1ccc(Cl)cc1)Nc1nncs1,3,i,3,0,-12,7,-11,-5,
COC(=O)C1=C(C)N(C2CCCCC2)C(=O)C1,-9,i,-2,5,-22,-5,-2,-11,
CCN(c1ccccc1)S(=O)(=O)c1ccc2c(c1)OCCO2,/,/,-1,0,-11,0,-2,/,
CSc1cc(C)nc(NC(C)=O)n1,-4,i,-3,4,-3,/,-10,-8,
CCOc1ccc(-c2noc(-c3cccnc3)n2)cc1OCC,-3,i,2,0,-11,4,1,3,
O=C1CN(C(=O)COC(=O)c2cnc(Cl)c(Cl)c2)c2ccccc2N1,4,i,0,2,/,-2,0,2,

# For reference, two of the compounds above:
SMILES,eIF4H inh,Rce1 inhib,MT1-MMP act inh,MT1-MMP act inh RFP,Yeast UUG start,HIV Env fusion,CSC inhib,PABP FP inh,others
Cc1ccc(-c2nc3cccnc3o2)cc1NC(=O)COc1ccc(C(C)(C)C)cc1,0,i,4,-21,-26,/,-3,-2,
CCOC(=O)C1=C(C)N=c2s/c(=C3\C(=O)Nc4ccccc43)c(=O)n2C1c1ccc2c(c1)OCO2 (stereo not given),-4,i,1,7,-21,-7,-10,-14,

# Next part
SMILES,eIF4H inh,Rce1 inhib,MT1-MMP act inh,MT1-MMP act inh RFP,Yeast UUG start,HIV Env fusion,CSC inhib,PABP FP inh,others
CCCN1CCN(CCCNC(=O)CCn2nc(-c3ccccc3)ccc2=O)CC1,-1,i,0,5,2,4,-4,-4,
CC(C)c1ccc(C(=O)Nc2nnc(S(=O)(=O)N3CCCCC3)s2)cc1,-13,i,0,-4,2,-16,18,-2,
Cc1nn(C)c(C)c1CN(C)C(=O)CCCC(=O)O,2,i,4,4,95,/,1,1,
O=C1NC(=S)S/C1=C/c1ccc(N2CCOCC2)o1,87*,i,-28,89,-19,/,14,1.3*,eIF4H inh retest=100*;PABP FP inh retest=102*
Cc1ccc(Cn2cc(-c3ccccc3)nn2)cc1,3,i,4,-3,-5,-44,5,10,
CC1CCC(NS(=O)(=O)c2ccc(Cl)nc2)CC1 (stereo not given),/,i,2,-6,-10,-12,-1,/,
O=C(CSc1nnc2ccc(-c3cccnc3)nn12)Nc1ccccc1,/,i,3,5,/,-3,-1,/,
CCc1ccc(N(CC(=O)NCc2ccco2)C(=O)CCC(=O)Nc2nccs2)cc1,-10,i,-2,-2,-21,-1,-10,7,
COc1ccc(CNC(=O)COc2cc3c(c4oc(=O)cc(C)c24)CCC(C)(C)O3)cc1,-7,i,4,-9,-2,/,2,-2,
Nc1c(Br)c(=O)[nH]c(=O)n1-c1ccc(F)cc1,4,i,8,13,/,9,-5,17,
CC(C)Cn1nc(NS(=O)(=O)c2cccc3nonc23)c2cc3ccccc3nc21,-6,i,4,3,-10,0,14,5,
Cc1ccc(CNC(=O)C2CCC(CNc3nc(=S)[nH]c4ccccc34)CC2)cc1 (stereo not given),3,i,-3,-6,-7,4,34,12,
CCOC(=O)Cn1c(=NC(=O)C(C)C)sc2c(C)cc(C)cc21,2,i,0,-7,/,-10,/,-1,
O=C(NCCCCc1ccccc1)c1ccccc1Br,/,i,0,0,-20,4,3,/,
COc1ccc(C(=O)N2CCN(Cc3nc(CC4CC4)no3)CC2)cc1,1,i,11,5,/,11,-2,-5,
CCC(=O)NC1(C(F)(F)F)C(=O)NC(C)=C1C#N (stereo not given),4,i,-2,-3,-16,-8,-4,-2,
Cc1ccc(NC(=O)CS(=O)CC(=O)N(C2CCCC2)C(C)C(=O)NC2CCCCC2)cc1 (stereo not given),-1,i,-5,-7,0,/,-6,7,
CC1CCC(n2c(=S)[nH]c3ccccc3c2=O)CC1 (stereo not given),0,i,5,-4,-19,/,22,-4,

# An excerpt, so the mix of outcomes need not match the whole.
